Source: PubChem
KSHV LANA nucl: inhibitors of KSHV LANA binding to nucleosomes; z-score (no concentration beside the values); FITC-LANA1-23 / chicken nucleosome fluorescence polarization; stronger effect = lower value; 51,000 tested, 0.3% active;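 active means both repeat wells score below -2 in polarization z-score versus plate sample wells, excluding overly bright wells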;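 further: 100 nL library stock added to about 30 µL; numbers are from one replicate; some results filed as inactive read as strong as hits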
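Test system: purified chicken nucleosomes with FITC-labelled LANA N-terminal peptide (1-23); Input: 240 nM purified chicken nucleosomes (480 nM peptide binding sites), final; Medium: TEN-BT buffer, pH 7.5; Timing: 10–45 min, room temperature; Technique: fluorescence polarization, 480 nm excitation, 535 nm parallel and perpendicular emission; Replication: duplicates.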
Ab BasE inh: inhibitors of Acinetobacter baumannii siderophore enzyme BasE | purified BasE, fluorescence polarization binding displacement | inhibition, % (concentration not given with the values) | AID 485350 | 84,000 tested, 0.1% active;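 active means both replicates above 25% with normal brightness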;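 further: 0% = negative plate control signal and 100% = positive plate control signal; stock transfer was 100 nL into about 30 µL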
* hit, by the source's call; nt = no result given; & = joins results of further samples. The list is partial, so the mix of outcomes need not match the whole.

SMILES	KSHV LANA nucl	Ab BasE inh
CC(=O)NCc1ccc(C(=O)COC(=O)c2cc3c(s2)CCCCC3)o1	nt	-1.8
Cc1c(O)c(=O)n(-c2ccccc2)n1C	-0.77	-3.5
COc1ccc(N2CCN(C(=O)CCc3c(C)nc4nc[nH]n4c3=O)CC2)cc1	-0.63	2.6
COc1nc(C)nc(N/C=C(\C#N)C(=O)C2CC2)n1	-0.31	7.1
O=C(CN1CCSc2ccccc21)NCc1ccccc1	nt	0.5
Cc1n(O)c2c(NO)ccc(N=O)c2[n+]1[O-]	-0.58	1.4
COc1ccc(-c2nc(SC(C)C(=O)O)c3c(=O)n(C)c(=O)n(C)c3n2)cc1 (configuration not stated)	-1.6	-1.7
CCOC(=O)N1CCc2c(sc3ncn(Cc4ccc(Cl)cc4)c(=O)c23)C1	nt	-2.1
CCOC(=O)c1sc(Nc2ccc(C)cc2)c(C(=O)NCc2ccco2)c1N	nt	1.2
CC1Sc2ccc(S(=O)(=O)C(C)CC(=O)Nc3ccccc3F)cc2NC1=O (configuration not stated)	-0.43	-2.2
COC(=O)c1ccc(CSc2nnc(N)s2)o1	0.16	0.5
COC(=O)Nc1ccc(S(=O)(=O)N2CCCCC2)cc1	-0.86	-0.4
CCOc1ccc(S(=O)(=O)NCC(c2ccc(N(C)C)cc2)N(C)C)cc1 (configuration not stated)	2.3	-2.3
CC1CC(=O)c2cnn(-c3nc4ccccc4s3)c2C1 (configuration not stated)	-0.43	-2.8
COc1cccc(CSc2nncn3c2cc2oc(C)cc23)c1	1.4	1.6
C[C@H](N)[C@H](O)c1cccc(O)c1	0.76&-0.68	-1.3
CN(C(=O)CSc1nnc(-c2ccccc2)o1)C1CCS(=O)(=O)C1 (configuration not stated)	nt	2.0
CCc1cc(C=Nc2ccccc2)c(O)s1	-0.46&1.8	-1.6&-4.0
O=C1c2ccccc2C(=O)N1CCn1cnc2c(cnn2-c2cccc(Cl)c2)c1=O	nt	8.3
O=c1c(NCCCc2ccccc2)nccn1-c1ccc2c(c1)OCCO2	0.61	-3.3
O=C(CN1C2=NCCCN2c2ccccc21)c1cccs1	0.0075	-3.5
Nc1ccc(-c2ccc(N)cc2C(F)(F)F)c(C(F)(F)F)c1	2.4	-0.6
CC1(C)CC(NC(=O)Cc2ccc(Cl)cc2)CC(C)(C)N1	0.25	0.6
Cc1nc(-c2ccccc2)sc1-c1nnc(-c2cccc3ccccc23)o1	nt	1.3
CCN(CC)c1ccc(NC(=O)CN(C)Cc2ccccc2C)cc1	nt	0.1
O=C(NN1CC(=O)N(C2CCCC2)C1=O)C(c1ccccc1)c1ccccc1	-0.37	1.8
CC(=O)Nc1ccc(C(=O)CSc2nc3ccccc3c(=O)n2CC2CCCO2)cc1 (configuration not stated)	nt	-0.1
CCOC(=O)C1CCN(C(=O)Cc2ccccc2OC)CC1	-0.11	-0.8
COC(=O)c1cc(OC)c(Br)c(OC)c1	0.038	1.4
O=C(O)CCn1ncc(=O)c2ccccc21	nt	1.6
C=Cc1ccc(Cn2c(C(=O)OC)cc3occc32)cc1	0.82	-2.2
O=C(Nc1ncc(Cc2cc(Cl)ccc2Cl)s1)c1ccco1	nt	-2.4
CC[n+]1oc(-c2ccccc2)cc1C	nt	2.8
Cc1ccc(S(=O)(=O)/C(C#N)=C/c2ccc(-c3ccc(Cl)cc3)o2)cc1	nt	1.3
c1ccn2cc(-c3ccc4c(c3)OCCO4)nc2c1	nt	-3.1
O=P(O)(O)C(Cl)(Cl)P(=O)(O)O	-0.2	nt
CC1(C)CC2CC(C)(CN2C(=O)CSc2cccc[n+]2[O-])C1 (configuration not stated)	nt	-0.6
CC(C)Cn1c(=S)[nH]c2cc(Cl)ccc21	nt	2.2
COC(=O)NC1C2CC3CC(C2)CC1C3 (configuration not stated)	0.15	0.0
Cn1c(=O)n(C)c2cc(NC(=O)C(F)(F)F)ccc21	-0.024	-0.5
CCCCN1C(=O)C(NC(=O)c2cccnc2)(C(F)(F)F)C2=C1CC(C)(C)CC2=O (configuration not stated)	0.022	-0.9
Cc1ccc(/C=C(\C#N)C(=O)C(C)(C)C)o1	nt	0.4
COc1ccc(Cl)c2sc(N3CCN(C(=O)c4ccco4)CC3)nc12	2.6	-4.6
CCC(C)S(=O)(=O)c1oc(-c2ccc(F)cc2)nc1S(=O)(=O)c1ccc(C)cc1 (configuration not stated)	-0.67	3.2
O=c1cccc(-c2ccc(O)cc2)o1	-0.18	0.4
O=C(Nc1cc(Cl)cc(Cl)c1)C1CCCC1	0.33	2.6
Cc1ncoc1C(=O)Nc1ccc(C(C)C)cc1	1.2	-0.6
COC(=O)c1cc(SC#N)ccc1N	-0.19	2.0

The closing 6 records of the section above are carried over, then new ones follow:
SMILES	KSHV LANA nucl	Ab BasE inh
COc1ccc(Cl)c2sc(N3CCN(C(=O)c4ccco4)CC3)nc12	2.6	-4.6
CCC(C)S(=O)(=O)c1oc(-c2ccc(F)cc2)nc1S(=O)(=O)c1ccc(C)cc1 (configuration not stated)	-0.67	3.2
O=c1cccc(-c2ccc(O)cc2)o1	-0.18	0.4
O=C(Nc1cc(Cl)cc(Cl)c1)C1CCCC1	0.33	2.6
Cc1ncoc1C(=O)Nc1ccc(C(C)C)cc1	1.2	-0.6
COC(=O)c1cc(SC#N)ccc1N	-0.19	2.0
CN(C)S(=O)(=O)Nc1cccc(-c2cn3c(n2)SCC3)c1	0.6	-0.5
CCc1ccnc(NC(=O)Nc2ccccc2C(C)(C)C)c1	nt	1.3
O=C(Cc1n[nH]c(=O)c2ccccc12)Nc1ccc2c(c1)OCCO2	nt	-4.5
CCC(C)NC(=S)N(C)N (configuration not stated)	nt	-2.8
O=C(NCCCN1CCCC1)c1ccc(CS(=O)Cc2ccccc2Cl)o1 (configuration not stated)	0.21	-12
CCn1c(O)c(C=Nc2cccc3c2C(=O)NC3=O)c(=O)n(CC)c1=S	nt	2.3
Cn1c(SCC(N)=O)nnc1-c1ccc(S(=O)(=O)N2CCCC2)cc1	0.98	-2.4
CCOC(=O)c1c(NC(=O)CSc2nnc(-c3ccccc3)o2)sc2c1CCCC2	-0.37	0.6
CC1CCCN(C(=O)COC(=O)C2=NN(c3ccccc3)C(=O)CC2)C1 (configuration not stated)	nt	2.5
O=c1oc2ccccc2n1CNc1ccccn1	nt	0.5
CC(C)NC(=O)c1ncoc1-c1cccs1	1.1	1.7
COc1ccccc1CC1(C)NC(=O)N(CC(=O)c2cc(C)n(Cc3ccco3)c2C)C1=O (configuration not stated)	nt	-0.3

An excerpt from above in order of number of heavy atoms, ascending:
SMILES	KSHV LANA nucl	Ab BasE inh
CC(C)NC(=O)c1ncoc1-c1cccs1	1.1	1.7
CN(C)S(=O)(=O)Nc1cccc(-c2cn3c(n2)SCC3)c1	0.6	-0.5
CCc1ccnc(NC(=O)Nc2ccccc2C(C)(C)C)c1	nt	1.3

Other compounds follow:
SMILES	KSHV LANA nucl	Ab BasE inh
COC(=O)c1ccc(COc2ncnc3ccccc23)o1	nt	0.0
COc1cc(OC)c(NC(=O)Nc2nnc(N3CCCC3)s2)cc1Cl	0.5	-0.4
CCOC(=O)C(CC)Sc1nnc(NC(=O)c2ccc3c(c2)OCO3)s1 (configuration not stated)	-0.92	-2.4
O=C(c1ccccc1)c1cnc2cc3c(cc2c1N1CCCCCC1)OCCO3	-0.41	-1.1
CNc1cc(NC)c2ncnc3c2c1C(=O)c1ccccc1-3	nt	-3.1
CCS(=O)(=O)c1nc2ccccc2n1CC(=O)N(C)c1ccccc1	0.79	2.3
CCOC(=O)N1CCN(C(=O)c2cc(S(C)(=O)=O)ccc2Cl)CC1	nt	-4.2
COc1ccc(-c2[nH]nc3c2C(c2cc(OC)c(OC)cc2OC)C2=C(CC(C)(C)CC2=O)N3)cc1 (configuration not stated)	-0.07	0.0
COCCn1c(C)cc(C(=O)COc2nc3ccccc3nc2C)c1C	nt	-0.8
Brc1ccc(-c2ncc3ccccn23)cc1	0.6	-1.5
CCN(C(=O)CSc1nnc(C(C)(C)C)n1N)c1cccc2ccccc12	nt	-1.3
CCOC(=O)c1cc2c(=O)n3cccc(C)c3nc2n(C(C)C)c1=NC(=O)c1ccc2c(c1)OCO2	nt	2.6
COc1cc(C2CC(=O)N3CN(Cc4ccccc4)CSC3=C2C#N)cc(Br)c1O (configuration not stated)	-0.5	-1.1
CCOC(=O)c1nnn2c1nc(Sc1nc3ccccc3o1)c1ccccc12	nt	2.9
CN1CCC2=C1/C(=N\OC(=O)c1ccccc1)SC2=Nc1ccccc1	nt	0.8
O=C(NC1=NCCS1)c1cc2c(s1)CCCCCC2	2.8	-3.5
CCCCn1c(=O)[nH]c(=O)c2c1nc(COC(=O)c1ccccc1)n2CCC(C)C	nt	-0.3
C[C@]12CCC3c4ccc(O)cc4CCC3C1CC[C@@H]2O (some centres not stated)	-0.081&-0.65	-1.2
Cc1ccc(C)n1-c1ccsc1C(=O)O	-3.7*	18
CCc1ccc(OCC(=O)Nc2ccc(OC)cc2)cc1	nt	1.7
O=C(CNC(=O)c1ccc(-n2cnnc2)cc1)Nc1ccc(N2CCCCC2)cc1	-0.097	-0.1
CC(C)(C)n1ncc2c(=O)n(NC(=O)/C=C/c3ccccc3)cnc21	-1.3	-2.5
CCc1nc(SCC(=O)N2c3ccccc3Sc3ccccc32)n[nH]1	0.084	1.7
CN(C)c1ccc(CNC(=O)CC(c2cccs2)n2cccc2)cc1 (configuration not stated)	-0.36	1.8
CCN1CNC(=S)N(C2CCCCC2)C1	nt	0.6
COc1ccc(OC)c2c1CC(C)(C)n1c(-c3ccc(Cl)cc3)nnc1-2	nt	1.8
COCCOc1cc(C)nc(N2CCOCC2)n1	-0.03	1.6
CC1CC(C)CN(C(=O)c2ccc3c(c2)NC(=O)CN3)C1 (configuration not stated)	0.48	-2.1
Cc1cc(/C=C/C(=O)O)c(C)n1-n1cnnc1	-1.6	nt
COCC(=O)N1CCN(c2ncnc3c(-c4ccc(Cl)cc4)nsc23)CC1	-1.2	1.6
Cc1ccc(S(=O)(=O)c2nc(-c3ccccc3)oc2S(=O)(=O)c2ccc(C)cc2)cc1	-0.82	1.1
Nc1nc(CSc2nnc(-c3ccccc3O)n2Cc2ccccc2)cs1	-0.52	1.6
N#C/C(=C\c1ccc(-c2cc(C(F)(F)F)cc(C(F)(F)F)c2)o1)C(=O)NCCc1c[nH]c2ccccc12	1.7	-3.8
CC1(C)CC(=O)C(C=NCc2ccccc2)=C(O)C1	-0.21	0.9
CCCCn1c(SC2CCCCC2=O)nc2cc(S(N)(=O)=O)ccc21 (configuration not stated)	nt	0.2
CC(C)CCC1(C)NC(=O)N(Cc2ccc(C#N)cc2)C1=O (configuration not stated)	nt	-1.7
CCCN(CCC)S(=O)(=O)c1ccc(C(=O)Nc2cc(C(F)(F)F)cc(C(F)(F)F)c2)cc1	-0.59	nt
O=c1[nH]nc(SCc2ccccc2)n1C1CC2C=CC1C2 (configuration not stated)	-0.83	nt
CN(CCOc1cccc(C(F)(F)F)c1)Cc1ccccc1	nt	3.4
O=C(Cc1ccccc1Cl)NC1(O)C(=O)c2ccccc2C1=O	nt	1.4
COc1ccc(C2CC(c3ccc(C)cc3)=NN2S(=O)(=O)c2ccc(C)cc2)cc1 (configuration not stated)	nt	-15
Nc1ccn([C@@H]2O[C@H](CO)[C@@H](O)C2(F)F)c(=O)n1	-0.42	nt
CCSc1nnc(-c2ccncc2)n1Cc1ccccc1	0.023	-1.7
S=c1[nH]nc(SCc2ccccc2)s1	-0.22	5.9
CC(C)Cn1c(N)c(C(=O)CSc2ncccn2)c(=O)n(C)c1=O	nt	2.1
CC1=C(C(=O)O)N2C(=O)[C@@H](NC(=O)C(N)c3ccccc3)[C@H]2SC1 (some centres not stated)	0.048&0.034	1.2
COc1cc(OC)c(C(=O)OC2CCCC2=O)cc1OC (configuration not stated)	nt	2.0
O=C(N/N=C/C1=C(N2CCOCC2)C(=C\c2ccccc2)/CC1)NC1CCCCC1	nt	-1.1
COc1ccc(COCC(O)CN2CC(C)OC(C)C2)cc1 (configuration not stated)	nt	2.9
C=CCN1C(=O)/C(=C\c2cc(OC)c(O)c(OC)c2)SC1=S	1.1	-13
CC(Oc1cccc(C(F)(F)F)c1)c1ccnc(N)n1 (configuration not stated)	-0.64	nt
CCOC(=O)C1CCCN(CC(=O)Nc2c(F)c(F)c(F)c(F)c2F)C1 (configuration not stated)	nt	0.8
OC(C#Cc1ccccc1)c1ccco1 (configuration not stated)	0.57	-14
Cc1ccc(S(=O)(=O)CCSc2nccn2C)cc1	-1	2.7
CCC(C#CCN1CCCCC1)(CC)OC(C)=O	1.2	-2.8
Cc1nnc(Nc2ccccc2)n(N)c1=O	-0.087	-0.2
CC(C)CN1C(=O)c2ccc(C(=O)NC3CCCCC3)cc2C1=O	1.1	0.7
C/C(N)=C\C(=O)Nc1ccccc1	-0.54	0.1
NC(=O)c1ccsc1NC(=O)CSc1ccccc1	0.27	-1.5
O=C(CNCC1CCCO1)Nc1ccccc1-n1cccc1 (configuration not stated)	-0.44	0.8
COc1ccc(N2CC(NC(=O)NCCn3c(C)cc4ccccc43)CC2=O)cc1OC (configuration not stated)	-0.4	2.3
Cn1cc(NC(=O)Nc2ccc(C(F)(F)F)cc2)c(C(F)(F)F)n1	nt	2.3
CCOc1cc(C)[nH]n1	-0.073	7.0
